Screening results: PubChem BioAssay, Broad Institute
FGF22 binding = FGF22 (human) thermal shift binding; recombinant FGF22 thermal shift, SYPRO orange fluorescence; percent of sucrose octasulfate shift, DMSO zero; 1.5% of 340,000 active; calls only at 9.99 µM; AID 651658; Q9HCT0;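 active means melting point raised past a set limit in the mean and every replicate; three in four hits are not shown here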
Target sequence (Q9HCT0 whole entry, looked up): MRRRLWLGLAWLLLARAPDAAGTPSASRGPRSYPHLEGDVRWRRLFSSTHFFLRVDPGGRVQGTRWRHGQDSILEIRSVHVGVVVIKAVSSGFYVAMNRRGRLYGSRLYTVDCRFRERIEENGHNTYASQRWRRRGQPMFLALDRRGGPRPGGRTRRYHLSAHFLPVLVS
Calls only; i = inactive; + = active, no number. This is a subset; the hit share may differ from the screen's.

No. | FGF22 binding | mol
1 | i | COCC(=O)N1C[C@@H](C)[C@@H](OC)CN(C)C(=O)c2ccc(NC(=O)c3ccc(F)cc3)cc2OC[C@@H]1C
2 | i | C[C@H](CO)N1C[C@H](C)[C@H](CN(C)Cc2ccc3c(c2)OCO3)OCCCC[C@H](C)Oc2ccc(NC(=O)Cc3ccccc3)cc2C1=O
3 | i | Cc1noc(C)c1S(=O)(=O)N(C)C[C@H]1Oc2ccc(NC(=O)Nc3ccc(F)cc3)cc2CC(=O)N([C@@H](C)CO)C[C@@H]1C
4 | i | O=C(Nc1ccc2c(c1)[C@H]1C[C@H](CC(=O)N3CCCCC3)O[C@H](CO)[C@H]1O2)NC1CCCC1
5 | i | CC(=O)N1CC2(C1)[C@@H](c1ccc(-c3cccc(F)c3)cc1)[C@@H](CO)N2CC1CCCC1
6 | i | O=S(=O)(c1ccccc1)N1CCCCN2[C@H](CO)[C@H](c3ccc(-c4cncnc4)cc3)[C@@H]2C1
7 | i | COc1ccc(S(=O)(=O)N[C@H]2C=C[C@H](CC(=O)N3CCN(c4ccccc4)CC3)O[C@@H]2CO)cc1
8 | i | O=C(NCC(F)(F)F)[C@@H]1[C@@H](CO)[C@@H]2Cn3c(cccc3=O)[C@H]1N2CC1CCOCC1
9 | i | C=CCNc1cccc2c1S(=O)(=O)N[C@H](C)CO2
10 | i | COc1ccc(S(=O)(=O)N(C)C[C@H]2OCCCC[C@@H](C)Oc3ccc(NC(=O)CCCN(C)C)cc3C(=O)N([C@H](C)CO)C[C@@H]2C)cc1
11 | i | C[C@H](CO)N1C[C@H](C)[C@H](CN(C)S(=O)(=O)c2ccc(C#N)cc2)Oc2ncc(C#Cc3ccccc3)cc2C1=O
12 | i | C[C@@H]1CCCCO[C@@H](CN(C)C(=O)c2ccncc2)[C@H](C)CN([C@H](C)CO)C(=O)c2cc(NC(=O)NC3CCCCC3)ccc2O1

No. | FGF22 binding | mol
13 | i | C[C@@H]1CN([C@@H](C)CO)C(=O)Cc2cc(NS(=O)(=O)c3ccc(Cl)cc3)ccc2O[C@@H]1CN(C)Cc1ccc2c(c1)OCO2
14 | i | CCC(=O)N(C)C[C@H]1Oc2ncc(C#C[C@@H](C)O)cc2C(=O)N([C@H](C)CO)C[C@@H]1C
15 | i | C/C=C/c1cnc2c(c1)C(=O)N([C@H](C)CO)C[C@H](C)[C@@H](CN(C)C(=O)Cc1cccnc1)O2
16 | i | C[C@@H]1CN([C@H](C)CO)C(=O)c2cccc(NS(=O)(=O)c3ccc(Cl)cc3)c2O[C@H]1CN(C)Cc1ccc(C(F)(F)F)cc1
17 | i | CNC[C@H]1Oc2c(NC(=O)c3ccc(-c4nccs4)cc3)cccc2C(=O)N([C@@H](C)CO)C[C@H]1C
18 | i | O=C(C[C@@H]1CC[C@H](NC(=O)C2CCC2)[C@H](CO)O1)NCc1ccncc1
19 | i | C[C@H]1CN([C@@H](C)CO)C(=O)c2cc(-c3ccc(C#N)cc3)cnc2O[C@@H]1CN(C)CC1CCCC1
20 | i | O=C(C[C@H]1CC[C@@H]2[C@H](COC[C@@H](O)CN2Cc2cc(F)cc(F)c2)O1)Nc1nccs1
21 | i | C[C@H](CO)N1C[C@H](C)[C@@H](CN(C)C(=O)Nc2ccccc2)Oc2ccc(N(C)C)cc2CC1=O
22 | + | CC(C)C#Cc1cnc2c(c1)C(=O)N([C@@H](C)CO)C[C@@H](C)[C@@H](CN(C)C(=O)c1cnccn1)O2
23 | i | C[C@H](O)C#Cc1ccc2c(c1)O[C@@H](CN(C)C(=O)C1CCC1)[C@H](C)CN([C@@H](C)CO)S2(=O)=O
24 | i | COC(=O)[C@H]1[C@H](CO)[C@H]2Cn3c(ccc(/C=C/c4ccccc4)c3=O)[C@H]2N1CCC(F)(F)F

No. | FGF22 binding | mol
25 | i | C[C@@H]1CN([C@@H](C)CO)C(=O)c2cc(NC(=O)Nc3cccc4ccccc34)ccc2O[C@H]1CN(C)Cc1ccc(-c2ccccc2)cc1
26 | i | C[C@@H]1CN([C@@H](C)CO)C(=O)c2cc(NS(=O)(=O)c3ccccc3)ccc2O[C@@H](C)CCCCO[C@@H]1CN(C)C(=O)Cc1ccccc1
27 | i | C[C@H]1CN([C@@H](C)CO)C(=O)c2cccc(NS(=O)(=O)c3ccc(F)cc3)c2O[C@@H]1CN(C)Cc1ccc(C(F)(F)F)cc1
28 | i | C[C@H](CO)N1C[C@H](C)[C@H](CN(C)C(=O)Cc2cccnc2)Oc2ncc(C#CCN(C)C)cc2C1=O
29 | i | C[C@H](CO)N1C[C@H](C)[C@H](CN(C)C(=O)c2ccccn2)Oc2ncc(-c3ccccc3F)cc2C1=O
30 | i | O=C(N[C@@H]1CC[C@@H](CCn2cc(C3(O)CCCC3)nn2)O[C@@H]1CO)C1CCC1
31 | i | C[C@H](CO)N1C[C@H](C)[C@@H](CN(C)Cc2ccc(Oc3ccccc3)cc2)Oc2c(cccc2N(C)C)C1=O
32 | i | COc1cccc(-c2cnc3c(c2)C(=O)N([C@@H](C)CO)C[C@@H](C)[C@@H](CN(C)C(=O)Nc2ccccc2F)O3)c1
33 | i | CC(C)NC(=O)N(C)C[C@H]1Oc2c(NS(=O)(=O)c3ccc(Cl)cc3)cccc2C(=O)N([C@H](C)CO)C[C@H]1C
34 | i | C[C@H](O)C#Cc1cnc2c(c1)C(=O)N([C@H](C)CO)C[C@H](C)[C@H](CN(C)C(=O)CN(C)C)O2
35 | i | CCC(=O)N[C@H]1CC[C@H](CCn2cc(C3CC3)nn2)O[C@H]1CO
36 | i | CCCC(=O)Nc1ccc2c(c1)C(=O)N(C)C[C@H](OC)[C@@H](C)CN(Cc1ccc(-c3ccccn3)cc1)[C@@H](C)CO2

No. | FGF22 binding | mol
37 | i | O=C(C[C@@H]1CC[C@@H]2[C@H](COC[C@H](O)CN2Cc2nccs2)O1)NCc1ccccc1
38 | i | CC(C)NC(=O)N(C)C[C@H]1Oc2ncc(C#Cc3ccc(F)cc3)cc2C(=O)N([C@@H](C)CO)C[C@@H]1C
39 | i | O=C(C1CCCCC1)N1C[C@@H]2[C@H](c3ccccc31)[C@@H](CO)N2C(=O)c1ccccc1
40 | i | COc1cccc(-c2ccc3c(c2)O[C@H](CN(C)C(=O)C2CCOCC2)[C@@H](C)CN([C@H](C)CO)S3(=O)=O)c1
41 | i | Cc1ccc(S(=O)(=O)Nc2cccc3c2O[C@H](CN(C)S(=O)(=O)c2cn(C)cn2)[C@@H](C)CN([C@H](C)CO)C3=O)cc1
42 | i | COCC(=O)Nc1ccc2c(c1)C(=O)N(C)[C@H]1CC[C@@H](CC(=O)NCc3cccc(F)c3)O[C@H]1CO2
43 | i | CCNC(=O)C[C@H]1CC[C@@H]2[C@H](COc3ccc(NC(C)=O)cc3C(=O)N2C)O1
44 | i | Cc1ccc(-c2cnc3c(c2)C(=O)N([C@@H](C)CO)C[C@H](C)[C@@H](CN(C)C(=O)c2cccc(F)c2)O3)cc1
45 | i | COc1cccc(NC(=O)Nc2ccc3c(c2)C(=O)N(C)C[C@H](OC)[C@H](C)CN(CC2CC2)[C@H](C)CO3)c1
46 | i | C[C@@H]1CN([C@H](C)CO)C(=O)c2cccc(NC(=O)c3nc4ccccc4s3)c2O[C@H]1CN(C)S(=O)(=O)c1ccccc1
47 | i | O=C(Nc1ccccc1F)N1C[C@H]2[C@@H](c3ccccc31)[C@H](CO)N2C(=O)C1CCCCC1
48 | i | C[C@@H]1CN([C@@H](C)CO)C(=O)c2cc(NC(=O)CCCN(C)C)ccc2O[C@@H](C)CCCCO[C@H]1CN(C)CC1CCCCC1

No. | FGF22 binding | mol
49 | i | O=C(NC1CCCCC1)N[C@@H]1CC[C@H](CCNS(=O)(=O)c2ccccc2)O[C@H]1CO
50 | i | C[C@H]1CN([C@@H](C)CO)C(=O)c2cc(N(C)C)ccc2O[C@@H]1CN(C)CC1CCCCC1
51 | i | COC(=O)C[C@@H]1CC[C@@H]2[C@H](COc3ccc(NC(=O)c4cccc(Cl)c4)cc3C(=O)N2C)O1
52 | i | C[C@H](CO)N1C[C@H](C)[C@@H](CN(C)Cc2ccc(C(=O)O)cc2)OCCCC[C@H](C)Oc2ccc(NC(=O)C3CCCCC3)cc2C1=O
53 | i | C[C@H]1CN([C@@H](C)CO)C(=O)Cc2cc(NC(=O)NC3CCCCC3)ccc2O[C@@H]1CN(C)Cc1ccc(C(=O)O)cc1
54 | i | C[C@H](CO)N1C[C@H](C)[C@H](CN(C)S(=O)(=O)c2cccs2)Oc2ccc(NC(=O)Nc3ccccc3)cc2C1=O
55 | i | CN1C(=O)c2cc(NC(=O)c3ccccc3Cl)ccc2OC[C@H]2O[C@H](CC(=O)O)CC[C@@H]21
56 | i | O=C(C[C@@H]1CC[C@H]2[C@@H](COC[C@@H](O)CN2C(=O)c2ccccc2)O1)NCc1ccc(-c2ccccc2)cc1
57 | i | Cc1cc(C(=O)Nc2cccc3c2O[C@@H](CN(C)Cc2ccc(-c4ccccc4)cc2)[C@@H](C)CN([C@@H](C)CO)C3=O)n(C)n1
58 | i | CN(C)C(=O)c1cccc(-c2ccc3c(c2)[C@H]2[C@H](CCN2C(=O)c2ccccc2F)[C@@H](CO)N3)c1
59 | i | CNC[C@@H]1Oc2c(NC(=O)c3ccncc3)cccc2C(=O)N([C@H](C)CO)C[C@H]1C
60 | i | Cc1noc(C)c1NC(=O)N(C)C[C@@H]1Oc2c(NC(=O)c3nc4ccccc4s3)cccc2C(=O)N([C@H](C)CO)C[C@H]1C

No. | FGF22 binding | mol
61 | i | C[C@H]1CN([C@@H](C)CO)C(=O)Cc2cc(NS(=O)(=O)c3ccccc3)ccc2O[C@H]1CN(C)Cc1ccc(Oc2ccccc2)cc1
62 | i | CSc1nc2c(=O)[nH]cnc2s1
63 | i | C[C@@H]1CN([C@@H](C)CO)C(=O)c2cc(NC(=O)Cc3cn(C)c4ccccc34)ccc2O[C@H]1CN(C)C(=O)Nc1ccc2c(c1)OCO2
64 | i | CN(C)CCCNC(=O)[C@@]1(c2ccc([N+](=O)[O-])cc2)CC(=O)N(C2CCCCC2)[C@@H]1c1ccc(CO)cc1I
65 | i | C[C@@H]1CN([C@H](C)CO)C(=O)c2cccc(NS(=O)(=O)c3cccs3)c2O[C@@H]1CN(C)Cc1ccncc1
66 | i | CC=Cc1ccc2n(c1=O)C[C@@H]1[C@@H](CO)[C@H](C(=O)N3CCCCC3)N(C(=O)CC3CC3)[C@H]21 (mixture of isomers)
67 | i | O=C(c1cccc(F)c1)N1C[C@@H]2[C@H](c3ccccc31)[C@H](CO)N2C(=O)C1CCOCC1
68 | i | Cc1noc(C)c1S(=O)(=O)N(C)C[C@@H]1OCCCC[C@H](C)Oc2ccc(N(C)C)cc2C(=O)N([C@H](C)CO)C[C@H]1C
69 | i | O=C(C[C@@H]1C=C[C@@H](NC(=O)c2ccccc2)[C@@H](CO)O1)NCc1ccc(Oc2ccccc2)cc1
70 | i | CC(C)CC#Cc1ccc2c(c1)O[C@H](CN(C)C(=O)Cc1ccccn1)[C@@H](C)CN([C@H](C)CO)S2(=O)=O
71 | i | CO[C@H]1CN(C)C(=O)c2cc(NC(=O)C3CCCCC3)ccc2OC[C@@H](C)N(Cc2cccnc2)C[C@H]1C
72 | i | COc1cccc(S(=O)(=O)N(C)C[C@H]2Oc3cc(C4=CCCC4)ccc3S(=O)(=O)N([C@H](C)CO)C[C@H]2C)c1

No. | FGF22 binding | mol
73 | i | O=C(Nc1ccc(F)cc1)Nc1ccc2c(c1)[C@H]1C[C@@H](CC(=O)N3CCCCC3)O[C@H](CO)[C@H]1O2
74 | i | O=C(C[C@H]1C[C@@H]2c3cc(NC(=O)Nc4ccccc4)ccc3O[C@@H]2[C@H](CO)O1)NCc1cccnc1
75 | i | C[C@H](CO)N1C[C@H](C)[C@@H](CN(C)S(=O)(=O)c2cccs2)Oc2ccc(NS(C)(=O)=O)cc2CC1=O
76 | i | C[C@@H]1CN([C@H](C)CO)C(=O)c2cc(NS(=O)(=O)c3cccs3)ccc2O[C@@H]1CN(C)Cc1ccc(Oc2ccccc2)cc1
77 | i | CCN1CC(=O)N2[C@H](CO)[C@@H](c3ccc(-c4cccnc4)cc3)[C@H]2C1
78 | i | C[C@@H]1CN([C@H](C)CO)S(=O)(=O)c2ccc(-c3ccccc3)cc2O[C@@H]1CN(C)Cc1cncnc1
79 | i | COc1ccc(NC(=O)N[C@@H]2CC[C@@H](CCNC(=O)Cc3ccncc3)O[C@@H]2CO)cc1
80 | i | C[C@H]1CN([C@@H](C)CO)C(=O)c2cc(C#CC3CCCCC3)cnc2O[C@H]1CN(C)Cc1ccncc1
81 | i | COc1ccc(CN(C)C[C@H]2OCCCC[C@H](C)Oc3ccc(NS(=O)(=O)c4cn(C)cn4)cc3C(=O)N([C@@H](C)CO)C[C@H]2C)cc1
82 | i | C[C@@H](NC(=O)C[C@@H]1C=C[C@H](NC(=O)c2cccnc2)[C@@H](CO)O1)c1ccccc1
83 | i | CCC(=O)N1[C@H](C#N)[C@H](c2ccccc2-c2cccc(C)c2)[C@@H]1CO
84 | i | C[C@H]1CN([C@@H](C)CO)C(=O)c2cccc(NC(=O)C3CCCCC3)c2O[C@@H]1CN(C)S(=O)(=O)c1ccc(Cl)cc1
